ClpP mod – qHTS Assay for Activators of ClpP | purified B. subtilis ClpP, FRET peptide cleavage, 20 min | Potency, µM (highest dose often 57.5 µM), inactives show at the highest dose activity change, negative = active | 340,000 tested, 1.9% active; active = well fitted falling curve with a large enough effect; inconclusive = small, poorly fitted or top-dose-only effect; inactive = no such curve, though single readings can be large or run the other way; further: the source files actives as falling curves though it sought activators and does not explain the sign; nearly all actives have a fitted effect of over 65% in size; many hits overshoot -100%
Target sequence (P80244 whole entry, looked up): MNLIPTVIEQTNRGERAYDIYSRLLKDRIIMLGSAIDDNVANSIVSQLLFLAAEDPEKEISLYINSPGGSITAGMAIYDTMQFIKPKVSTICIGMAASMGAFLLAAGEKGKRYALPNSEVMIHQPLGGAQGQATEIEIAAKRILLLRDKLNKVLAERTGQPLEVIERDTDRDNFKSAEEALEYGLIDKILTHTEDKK
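Buffer: 100 mM Tris/HCl pH8, 100 mM KCl, 0.05% low protease BSA, 2.5% glycerol, 0.01% Tween-20. ClpP 10 microg/mL final; 20 min RT; delta FRET normalized to ADEP and DMSO controls.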
* hit, by the source's call; ? = inconclusive. Potency means the concentration at half of the fitted maximal effect. Some of the compounds tested. The share of hits here may be higher or lower than overall.

Preview (17 entries):
SMILES	ClpP mod
O=C(Cn1c(=O)n(-c2cccc(Cl)c2)c(=O)c2sc3ccccc3c21)N1CCCC1	4.1%
Cc1ccc(C#N)c(=O)n1CC(=O)Nc1ccccc1C(F)(F)F	?
CCOc1ccc(Cn2nnc(C(=O)Nc3cccc(SC)c3)c2N)cc1	205%
Cc1cc(C)cc(N2CCn3c2nc2c3c(=O)n(Cc3ccc(Cl)cc3)c(=O)n2C)c1	-24%
CCC(C(=O)N1CCN(c2cccc(C)c2C)CC1)n1nc(C)c2sc3ccccc3c2c1=O (centres undefined)	-2.6%
CCOC(=O)c1ccccc1NC(=O)CCc1nc(-c2ccc(C)cc2)no1	?
CCOc1ccc(S(=O)(=O)n2nc(C)c(S(=O)(=O)N3CCCCC3)c2C)cc1	0.0%
CCCCNc1ccc(-c2nc(-c3ccco3)no2)cc1[N+](=O)[O-]	-0.2%
Cc1cccc(Cn2c(=O)n(-c3cc(C)cc(C)c3)c(=O)c3oc4ccccc4c32)c1	-17%
CC1CCN(S(=O)(=O)c2ccc3c(c2)N(CC(=O)NC(C)c2ccccc2)C(=O)CO3)CC1 (centres undefined)	-0.5%
Cc1ccccc1-n1c(=O)c2c3c(sc2n2cnnc12)CCCC3	-11%
COc1ccc(NC(=O)NCc2cccn2Cc2ccc(F)cc2)cc1OC	0.2%
Cn1c(=O)c2c(-c3cccc(Br)c3)n(C(C)(C)CO)cc2n(C)c1=O	-8.1%
Cc1ccc(S(=O)(=O)N2CCN(C(=O)C(O)c3ccccc3)CC2)cc1 (centres undefined)	-0.1%
Cc1ccc(NC(=O)CSc2[nH]c(=O)ncc2C)cc1	2.6%
COc1ccc(CNC(=O)C2CCN(C(=O)c3ccc(-n4ccc5ccccc54)s3)CC2)cc1	?
Cc1nc2ccccn2c(=O)c1NC(=O)c1cccc(F)c1	-3.9%

The listing (from the top)
SMILES	ClpP mod
O=C(Cn1c(=O)n(-c2cccc(Cl)c2)c(=O)c2sc3ccccc3c21)N1CCCC1	4.1%
Cc1ccc(C#N)c(=O)n1CC(=O)Nc1ccccc1C(F)(F)F	?
CCOc1ccc(Cn2nnc(C(=O)Nc3cccc(SC)c3)c2N)cc1	205%
Cc1cc(C)cc(N2CCn3c2nc2c3c(=O)n(Cc3ccc(Cl)cc3)c(=O)n2C)c1	-24%
CCC(C(=O)N1CCN(c2cccc(C)c2C)CC1)n1nc(C)c2sc3ccccc3c2c1=O (centres undefined)	-2.6%
CCOC(=O)c1ccccc1NC(=O)CCc1nc(-c2ccc(C)cc2)no1	?
CCOc1ccc(S(=O)(=O)n2nc(C)c(S(=O)(=O)N3CCCCC3)c2C)cc1	0.0%
CCCCNc1ccc(-c2nc(-c3ccco3)no2)cc1[N+](=O)[O-]	-0.2%
Cc1cccc(Cn2c(=O)n(-c3cc(C)cc(C)c3)c(=O)c3oc4ccccc4c32)c1	-17%
CC1CCN(S(=O)(=O)c2ccc3c(c2)N(CC(=O)NC(C)c2ccccc2)C(=O)CO3)CC1 (centres undefined)	-0.5%
Cc1ccccc1-n1c(=O)c2c3c(sc2n2cnnc12)CCCC3	-11%
COc1ccc(NC(=O)NCc2cccn2Cc2ccc(F)cc2)cc1OC	0.2%
Cn1c(=O)c2c(-c3cccc(Br)c3)n(C(C)(C)CO)cc2n(C)c1=O	-8.1%
Cc1ccc(S(=O)(=O)N2CCN(C(=O)C(O)c3ccccc3)CC2)cc1 (centres undefined)	-0.1%
Cc1ccc(NC(=O)CSc2[nH]c(=O)ncc2C)cc1	2.6%
COc1ccc(CNC(=O)C2CCN(C(=O)c3ccc(-n4ccc5ccccc54)s3)CC2)cc1	?
Cc1nc2ccccn2c(=O)c1NC(=O)c1cccc(F)c1	-3.9%
Cc1ccc(C)c(S(=O)(=O)NCCc2csc(-c3ccc(Cl)cc3)n2)c1	?
Cc1cccc(NC(=O)CN(C)S(=O)(=O)c2ccc3c(c2)c(=O)n(C)c(=O)n3C)c1C	-1.5%
CCN1C(C(=O)c2ccccc2)=C(OC(=O)c2ccc(Cl)cc2)c2ccccc2S1(=O)=O	0.4%
COc1ccc(C(=O)NCC(c2ccc(N(C)C)cc2)N2CCc3ccccc32)c(OC)c1 (centres undefined)	?
CCOC(=O)c1c(C)[nH]c(C)c1S(=O)(=O)N(C)CC(=O)Nc1ccc(C)cc1Br	1.1%
CCCN(C(=O)Cn1ncc2c([nH]c3ccccc32)c1=O)c1ccc(F)cc1	4.4%
COc1ccc(C)cc1S(=O)(=O)Nc1cccc(-c2ccc(N3CCC(C)CC3)nn2)c1	-0.2%
CCOC(=O)c1ccc(NC(=O)/C(C#N)=C/c2ccc(OC)cc2)cc1	-0.5%
CCOc1ccccc1NC(=O)c1sc2nc(C)cc(C)c2c1N	?
CCc1ccc(NC(=O)c2ccc(F)c(S(=O)(=O)N(C)C3CCCCC3)c2)cc1	-7.0%
CCCC12CN3CC(CCC)(CN(C1)C3c1ccccc1)C2=O (centres undefined)	-6.3%
COc1ccc(CN(Cc2ccco2)C(=O)COc2ccccc2OC)cc1	0.1%
CCOc1ccc(C(=O)Nc2ccc(Cl)c(-c3nc4cc(C)cc(C)c4o3)c2)cc1	3.3%
Cc1nn(CC(=O)Nc2ccc(C(C)C)cc2)c(=O)c2c(C)n(-c3ccc(Cl)cc3)nc12	3.4%
CC(C)(C)OC(=O)N1CCC(c2c(C(=O)N3CCN(C(=O)c4ccco4)CC3)cnn2-c2ccccc2)CC1	0.6%
COc1ccc(CCNc2ncnc3c2cnn3-c2cc(Cl)ccc2C)cc1	-5.2%
CCSc1ncc(Cl)c(C(=O)N(Cc2ccc(N(C)C)cc2)Cc2ccco2)n1	-2.7%
O=C(C[n+]1cccc2cccc(O)c21)c1ccccc1	-2.7%
CCCOc1ccc(C(=O)N(Cc2cccs2)c2ccc(C)cc2)cc1	0.4%
CCS(=O)(=O)N1CC(=O)N(c2cc(Cl)ccc2C)C(C)(C(=O)NC2CCCCCC2)C1 (centres undefined)	-2.2%
COc1ccccc1CNC(=O)CC1N=C2c3ccccc3N=C(SCC(=O)Nc3ccc(F)cc3)N2C1=O (centres undefined)	-21%
CC(=O)N1c2ccc(S(=O)(=O)N3CCCCCC3)cc2CC1C(=O)NCc1ccccc1 (centres undefined)	-2.6%
CCOC(=O)C1CCCN(C(=O)c2cc3c(=O)[nH]c4ccc(C)cc4c3s2)C1 (centres undefined)	4.1%
Cc1ccc(CCNS(=O)(=O)c2cc(-c3cc(C)no3)ccc2C)cc1	-0.6%
COc1cc(OC)c(NC(=O)CCc2nc(C3=CCN(Cc4cccc(Cl)c4)CC3)no2)cc1Cl	-0.5%
Cc1cc(C)c(NC(=O)CSc2nc3nccnc3c(=O)n2CCc2c[nH]c3ccccc23)c(C)c1	-1.6%
O=c1c(-c2cccs2)nc2ccccc2n1C(c1ccccn1)c1nc2ccccc2[nH]1 (centres undefined)	4.8%
O=C(Nc1ccc(Br)c2cccnc12)c1cccc2ccccc12	-5.6%
O=C(NCc1ccc2c(c1)CCN2C(=O)c1ccncc1)c1ccccc1F	-3.4%
Cc1cccc(NC(=O)N2CCC3(CC2)Oc2ccccc2C(=O)N3Cc2ccccc2F)c1C	-0.9%
COC(=O)c1ccccc1NC(=O)Cn1c(=O)n(Cc2ccc(C(=O)NCc3ccc4c(c3)OCO4)cc2)c(=O)c2ccccc21	4.0%
Cc1ccc(CCNC(c2ccc(F)cc2)c2nnc(-c3ccccc3Cl)o2)cc1 (centres undefined)	0.6%
O=C(Nc1ccc(Cl)cc1F)c1cc(S(=O)(=O)NC2CCCCCC2)ccc1F	5.7%
CC(c1nc2ccccc2[nH]1)n1c(=O)c(-c2cccnc2)nc2ccccc21 (centres undefined)	-23%
Cc1ccc(Cn2ccn(Cc3ccccc3F)c(=O)c2=O)cc1	-1.4%
CCOc1ccc(-c2cc(-c3nc(-c4ccc(C)cc4)no3)[nH]n2)cc1	-0.1%
O=C(CSc1nnc(-c2cccs2)o1)Oc1ccccc1Cl	28%
C[C@@H]1COc2cc(N3CCC[C@@H]3CO)ccc2S(=O)(=O)N1	-0.4%
CCCn1c(=O)sc2cc(NC(=O)COc3ccc(Cl)cc3)ccc21	-2.5%
Cc1ccc(Nc2nnc(-c3ccc(C)c(S(=O)(=O)N4CCN(C)CC4)c3)c3ccccc23)cc1	-4.4%
COc1ccc(Cn2c(SCc3ccc(C(=O)NC(C)c4ccccc4)cc3)nc3cccnc32)cc1 (centres undefined)	?
Cc1ccc(CNC(=O)Cn2c(=O)cc(C(F)(F)F)c3c(C)nn(C)c32)cc1	-25%
CCOC(=O)c1ccc(NC(=O)c2oc(=O)c3ccccc3c2-c2ccccc2)cc1	0.6%
Next results:
SMILES	ClpP mod
CN(C)c1ccc(/C=C/C=C2/C=Cc3ccccc32)cc1	0.4%
COc1ccccc1N1CCN(C(=O)C(=O)c2cccc([N+](=O)[O-])c2)CC1	-1.3%
Cc1ccc2c(=O)cc(C(=O)Nc3nnc(C)s3)oc2c1	-4.6%
COc1ccc(Cl)cc1NC(=O)Cn1c(=O)n(Cc2ccco2)c(=O)c2ccc(C(=O)NC3CCCC3)cc21	-8.5%
Cc1ccc(C)c(CN2C(=O)c3ccccc3S(=O)(=O)c3ccc(C(=O)OCC4CCCO4)cc32)c1 (centres undefined)	-4.9%
Cc1ccc(N2CC(NC(=O)c3cc4ccccc4o3)CC2=O)cc1 (centres undefined)	1.0%
CCOC(=O)c1c(-c2ccc(OC)cc2)oc2ccc(OCc3ccc(Br)cc3)cc12	4.0%
CC(=O)c1cccc(NC(=O)c2cc3sc(Cl)cc3n2C)c1	-0.3%
O=C(NC1CC(=O)N(c2ccccc2)C1)C1CCCCC1 (centres undefined)	-1.3%
COc1ccc(-c2nc3ccccc3n(CC(C)C)c2=O)cc1	0.6%
O=C(CC1(O)C(=O)N(CCc2ccccc2)c2ccc(Br)cc21)c1ccc(F)cc1 (centres undefined)	-3.3%
COc1ccc(OC)c(CCNC(=O)c2cnn(-c3ccccc3)c2C2CCN(C(=O)OC(C)(C)C)CC2)c1	1.8%
Cc1ccc(S(=O)(=O)c2nc(-c3ccc(F)cc3)oc2SCC(=O)NC2CCCCC2)cc1	-5.8%
O=C(Cn1c(=O)n(Cc2ccco2)c(=O)c2oc3ccccc3c21)Nc1ccc(F)c(Cl)c1	?
CCCN(CCC)CCNC(=O)C1CCCN(S(=O)(=O)c2cccc3nsnc23)C1 (centres undefined)	0.2%
COc1cccc(N2C(=O)C(CC(=O)Nc3ccccc3)N(CCc3sccc3C)C2=O)c1 (centres undefined)	0.2%
CCn1cc(C(=O)N2CCN(c3cccc(C)c3)C(C)C2)c(=O)c2cc(S(=O)(=O)N3CCOCC3)ccc21 (centres undefined)	-1.3%
CCC(CC)c1nn2c(=O)cc(COc3ccc(NC(=O)c4ccccc4Cl)cc3)nc2s1	-0.1%
O=C(OCc1cc(=O)n2nc(C3CC3)sc2n1)c1cccc(NC(=O)c2ccccc2Cl)c1	0.4%
COc1ccc(OC)c(NS(=O)(=O)c2ccc3c(c2)CCCN3C(=O)C2CCC2)c1	-0.7%
O=C(Nc1ccc(F)cc1)c1ccc(-n2cnc3cccnc32)cc1	-1.8%
Cc1cccc(CNC(=O)c2ccc(C)c(-n3c(C)nc4cccnc43)c2)c1	-16%
O=C(Nc1ccc2oc(-c3cccc4c(Br)cccc34)nc2c1)c1ccc(F)cc1	4.0%
c1ccc(-c2csc3ncnc(Sc4nnnn4-c4ccccc4)c23)cc1	3.7%
CC(C)(C)n1nnnc1C(c1cc2ccccc2o1)N(Cc1ccccc1)Cc1ccccc1 (centres undefined)	-1.2%
Cc1ccc(N2C(=O)CS(=O)(=O)C23C(=O)N(Cc2ccccc2C)c2ccccc23)cc1Cl (centres undefined)	0.0%
COc1ccc(-c2cn3nc(N4CCC(C(=O)NCc5ccccc5F)CC4)sc3n2)cc1	-1.1%
COC(=O)[C@]12CCCCC=C1N(Cc1ccc3c(c1)OCO3)C(=O)[C@H](CC(=O)N1CCCCC1)C2	-0.4%
CC(C)Oc1ccc(CNC(=O)C2COc3ccccc3C2)cc1 (centres undefined)	0.1%
O=C(c1cnc2c(c1)COc1ccccc1-2)c1ccccc1O	8.0%
CCc1ccccc1N(C)C(=O)Nc1cn(CC(C)C)c(=O)c2ccccc12	3.5%
COc1ccc(Cc2c(-c3ccc(F)cc3)nc3cc(C)c(Br)c(C)n23)c(C)c1	-1.7%
CCCCCCCCCN(CCCCCCCCC)c1ccc(/C=C/c2ccnc3ccccc23)cc1	0.5%
Cc1cccc(-c2nc3scc(CCNC(=O)c4ccccc4Cl)n3n2)c1	1.1%
COC(=O)c1ccc(NC(=O)c2cc(=O)c3ccc(C)cc3o2)cc1	-2.5%
Cc1cccc(NC(=O)CCCn2c(C)c3cnn(-c4ccccc4)c(=O)c3c2C)c1C	-2.9%
CC1CCc2c(sc3nnn(CC(=O)Nc4ccccc4Cl)c(=O)c23)C1 (centres undefined)	-0.1%
CC1=C(C(=O)OCc2ccc(C)cc2)C(c2ccccc2Cl)CC(=O)N1 (centres undefined)	-2.5%
N#Cc1c(C(F)(F)F)cc(-c2cccs2)nc1SCC(=O)Nc1ccc(Cl)cc1	38%
Cn1c(=O)oc2cc(S(=O)(=O)N3CCCC(C(=O)N4CCN(c5ccc(F)cc5)CC4)C3)ccc21 (centres undefined)	0.9%
Cc1ccc2oc(C(=O)Nc3ccc(S(=O)(=O)N(C)Cc4ccccc4)cc3)cc(=O)c2c1	3.8%
COc1ccc(NC(=O)Cn2c(=O)oc3cc(S(=O)(=O)N4CCCC4)ccc32)cc1OC	-5.7%
CC1(c2ccc(Cl)cc2)CC(C)(C)N(C(=O)c2cccc(F)c2)c2ccccc21 (centres undefined)	-0.3%
CCOc1ccccc1N(C)C(=O)Cn1cnc2sc(C)c(S(=O)(=O)N3CCC(C)CC3)c2c1=O	0.1%
CCN(C(=O)CSc1nc2ccccc2nc1Cc1ccccc1OC)c1ccccc1	-0.4%

Screens: PubChem, National Center for Advancing Translational Sciences (NCATS)
